Bioassay records: PubChem, several laboratories
Yeast UUG start = modulators of start codon recognition fidelity in yeast; S. cerevisiae UUG-firefly luciferase reporter, luminescence/redox ratio; activity score, % at 18.7 µM; 0.13% of 350,000 active;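 active = replicate mean at a twofold rise or more, about +100% in these data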;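 also: firefly luciferase made from a UUG start codon reports start codon fidelity; reporter light over untreated wells divided by growth signal over untreated wells; some hits fall short of that in this replicate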
MT1-MMP act inh = inhibitors of human MT1-MMP activation | P50281 | HT1080 RFP-PRO-GFP cells, GFP/RFP ratio fluorescence, overnight; percent of plate control window, DMSO zero | GFP/RFP ratio change, % at 20 µM | 0.061% of 360,000 active;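 active = GFP/RFP ratio change of at least 30% with cell ATP level not reduced by more than half and red fluorescence within 50% of control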; also: strong numbers were not always called active
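Assay system – RFP-PRO-GFP reporter HT1080 cells · Compound dosing – single dose of 20 µM compound, 1% DMSO final · Incubation – overnight compound exposure at 37 °C · Measure – GFP/RFP fluorescence ratio · Benchmarks – DMSO wells and RFP-L50D-GFP cells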
Rce1 inh = blocks yeast Ras-converting enzyme; Q03530; yeast membranes, quenched prenylated peptide cleavage fluorescence; calls only; 0.27% of 290,000 active; AID 2563;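 active = fall in fluorescence gain of 50% or more versus controls, with final raw signal at or below 3038400; inconclusive = same 50% fall but final raw signal above 3038400; inactive = fall in fluorescence gain under 50%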;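 also: plate controls were neutral control wells for no effect and wells lacking membranes for full effect; tested at 10 µM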
Target sequence (Q03530 whole entry, looked up): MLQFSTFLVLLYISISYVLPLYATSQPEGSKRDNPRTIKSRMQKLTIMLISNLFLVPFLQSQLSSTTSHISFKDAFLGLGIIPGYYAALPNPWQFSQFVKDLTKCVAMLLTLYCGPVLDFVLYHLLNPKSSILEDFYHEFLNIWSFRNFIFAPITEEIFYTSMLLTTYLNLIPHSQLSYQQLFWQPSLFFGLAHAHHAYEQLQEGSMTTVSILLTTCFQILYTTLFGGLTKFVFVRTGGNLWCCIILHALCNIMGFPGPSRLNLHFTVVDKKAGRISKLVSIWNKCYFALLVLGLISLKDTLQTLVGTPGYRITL
Env fusion inh = blocks HIV Env-driven cell-cell fusion | 1.1% of 360,000 active | inhibition, % at 12.3 µM | HeLa-JRFL Env/CEM21 cell fusion, luciferase;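 active = mean replicate inhibition score of at least 50 and every replicate individually at or above 50; inconclusive = only one of the two criteria met; inactive = mean below 50 and not all replicates reaching 50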;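 also: 0% = plate neutral controls and 100% = maraviroc near 300 nM; one replicate is shown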
CSC inhib = blocks cancer stem cells | 1.1% of 300,000 active | inhibition, % at 7.5 µM | cancer stem cell-like cells viability, luminescence | AID 2717;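 active = mean at 75% or more and at least half the replicates too; inconclusive = mean and replicates disagree; tested in HMLE shEcad cells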;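 also: 0% = median of negative and 100% = median of positive control wells; the first replicate is given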
PABP FP inh = PABP-poly(A) binding inhibition. P11940. 1% of 290,000 active. inhibition, % at 35 µM. PABP-poly(A) RNA binding, fluorescence polarization;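 active = 50% or more with normal probe brightness, or confirmed in later tests; inconclusive = above 50% with abnormal brightness, or retests that disagree; inactive = below 50% or failed in later tests; about a fifth of its hits are not listed in these tables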;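 also: calls also rest on retests at 20 µM and on dose response follow-up; controls were probe without protein and protein plus probe with vehicle; some compounds called inactive have numbers as strong as hits; many hits fall short of the cut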
Target sequence (P11940 whole entry, looked up): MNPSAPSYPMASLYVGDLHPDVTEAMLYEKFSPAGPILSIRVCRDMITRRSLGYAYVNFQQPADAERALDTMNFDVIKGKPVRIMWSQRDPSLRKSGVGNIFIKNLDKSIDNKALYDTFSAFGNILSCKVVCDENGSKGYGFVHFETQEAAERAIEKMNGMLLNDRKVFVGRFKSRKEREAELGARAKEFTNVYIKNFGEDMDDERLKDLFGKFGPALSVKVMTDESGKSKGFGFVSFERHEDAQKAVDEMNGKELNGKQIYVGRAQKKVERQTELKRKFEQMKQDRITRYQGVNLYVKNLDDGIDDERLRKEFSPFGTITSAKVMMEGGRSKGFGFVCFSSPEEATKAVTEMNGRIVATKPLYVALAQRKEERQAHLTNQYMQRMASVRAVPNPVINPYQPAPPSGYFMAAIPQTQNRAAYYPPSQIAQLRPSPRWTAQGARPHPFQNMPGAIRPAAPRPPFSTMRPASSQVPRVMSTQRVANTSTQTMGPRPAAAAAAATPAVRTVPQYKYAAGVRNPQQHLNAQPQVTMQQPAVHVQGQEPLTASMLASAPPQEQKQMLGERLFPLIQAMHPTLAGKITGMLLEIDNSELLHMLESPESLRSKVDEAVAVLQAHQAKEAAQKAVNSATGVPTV
eIF4H inh = inhibitors of RNA binding by human eIF4H | Q15056 | eIF4H fluorescence polarization binding assay | inhibition, % at 35 µM | 0.94% of 290,000 active;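 active = 50% or more with normal probe brightness, or confirmed in later tests; inconclusive = above 50% with abnormal brightness, or retests that disagree; inactive = below 50% or failed in later tests; about a fifth of its hits are not listed in these tables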;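 also: calls also rest on retests at 20 µM and on dose response follow-up; 0% = protein and probe with vehicle and 100% = probe without protein; strong numbers were not always called active; many hits fall short of the cut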
MT1-MMP act inh RFP = recorded beside MT1-MMP act inh, whose call it bears; RFP signal change, %; measured here: RFP expression control read;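 0 = vehicle wells; hits needed this value within 50% of zero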
Active calls of the source: *; i = inactive; ? = inconclusive; nt = not tested or not shown.

item | Molecule | Env fusion inh | eIF4H inh | MT1-MMP act inh RFP | MT1-MMP act inh | CSC inhib | Rce1 inh | Yeast UUG start | PABP FP inh
1 | O=C(N/N=C/c1ccc2nccnc2c1)c1ccc(Br)cc1 | 7 | -1 | 4 | 2 | -2 | i | -2 | -14
2 | COc1ccc(C(=O)NNC(=O)Cn2nnc(-c3ccc(OC)c(OC)c3)n2)cc1 | 1 | 0 | 4 | 3 | -1 | i | nt | -6
3 | Cn1ccnc1-c1nnn(-c2ccc(F)cc2)n1 | -27 | nt | 3 | -1 | -13 | i | -20 | nt
4 | Cc1c(C(=O)N2CCOCC2)sc2ncn(CC(=O)N3CCC(C)CC3)c(=O)c12 | nt | -9 | 2 | 2 | 2 | i | -1 | -3
5 | O=C(CCc1ccccc1)NCCSCc1c(F)cccc1Cl | -15 | 1 | -3 | -1 | -12 | i | -12 | -2
6 | COc1ccc(CCNCc2ccc(-c3ccccc3)cc2)cc1OC | ? | nt | 3 | 6 | nt | nt | -15 | nt
7 | COc1ccc(CNC(=O)c2cnn3c(C(F)F)cc(C)nc23)cc1OC | 6 | -12 | -14 | 1 | -9 | i | 0 | 3
8 | CCOC(=O)C1=C(C)OC(N)=C(C#N)C1c1cncc(-c2ccc(F)cc2)c1 (stereo unspecified) | 1 | -1 | 0 | -6 | 8 | i | nt | 4
9 | COc1cccc(/C=N/n2nnnc2N)c1OCc1ccccc1Cl | -52 | 4 | 2 | 0 | 5 | i | -19 | 10
10 | COC(=O)C1N[C@@H]([C@@H](NC(=O)COc2ccccc2)C(=O)NCc2ccc(OC)cc2)SC1(C)C (stereo partly specified) | -26 | nt | -3 | 2 | -5 | i | -8 | nt
11 | CCn1cc(C(=O)NCCCN(CC(C)C)CC(C)C)c(=O)c2cc(S(=O)(=O)N(C)C3CCCCC3)ccc21 | 2 | -1 | -3 | 1 | 3 | i | -6 | -6
12 | O=C1OCCC1=COCCCCOC=C1CCOC1=O | 5 | nt | 0 | -2 | nt | nt | -8 | nt
13 | COc1ccc(C2=CC(c3ccc(OC)c(OC)c3)NC(=S)N2)cc1 (stereo unspecified) | 12 | 39 | -2 | -44 | -12 | i | -1 | -2
14 | CCOc1cccc(/C(O)=C2/C(=O)C(=O)N(Cc3cccnc3)C2c2ccco2)c1 (stereo unspecified) | -255 | -4 | -4 | -2 | -23 | i | -15 | 12
15 | NC(=O)N(N)c1nc(N2CCCC2)nc(N2CCCC2)n1 | nt | nt | 3 | -4 | -11 | nt | -34 | nt
16 | C=CCNc1nc(NCc2cccc(OC)c2)c2sc(-c3ccccc3)cc2n1 | -35 | nt | -9 | 7 | nt | nt | -18 | nt
17 | COCCNC(=O)CN(Cc1cccs1)C(=O)CCC(=O)Nc1nccs1 | -28 | 10 | 3 | 5 | -6 | i | -24 | -1
18 | O=C(OCCOc1ccc(Br)cc1)c1cnccn1 | nt | -3 | 1 | -2 | 15 | i | -8 | 9
19 | CCc1ccc(NC(=S)NC(=O)CC(C)C)cc1 | -33 | 3 | -6 | -6 | -7 | i | nt | 3
20 | O=C(CN1C(=O)CSc2ccccc21)Nc1ccc2c(c1)OCCO2 | 3 | 0 | 2 | -2 | -9 | i | nt | 1
21 | CCOC(=O)C1CCN(C(=O)COC(=O)c2cc(-c3cccs3)nn2-c2ccccc2)CC1 | -5 | nt | -3 | -3 | 0 | i | 14 | nt
22 | COC(=O)CC(NC(=O)Nc1ccccc1F)c1ccc2c(c1)OCO2 (stereo unspecified) | -6 | -5 | 3 | 2 | 2 | i | -5 | -14
23 | COc1ccc(Cc2nnc(N)s2)cc1 | -157 | 4 | -2 | 4 | -4 | i | -3 | 1
24 | S=C(NCCCc1ccccc1)Nc1ccccc1Cl | 0 | -10 | 0 | 2 | 1 | i | nt | 1
25 | CCOc1ccc(-n2c(SCc3nc(-c4ccc(C)cc4)no3)nnc2-c2ccncc2)cc1 | ? | -5 | -10 | 0 | -8 | i | nt | -1
26 | COc1ccc(OC)c(NC(=O)COc2ccc(S(=O)(=O)NC(C)C)cc2)c1 | nt | -11 | 0 | 1 | -10 | i | -8 | -3
27 | O=C1CC(=O)N2N=C(c3ccc([N+](=O)[O-])cc3)SC2=N1 | -20 | 28 | 3 | 5 | -1 | i | nt | -13
28 | CC(C)CSc1nc2ccccc2[nH]1 | -21 | -2 | -1 | 3 | -3 | i | nt | 4
29 | COc1ccc(NC(=O)C2CCN(S(=O)(=O)c3ccc4c(c3)NC(=O)C(C)S4)CC2)cc1 (stereo unspecified) | -6 | -7 | -17 | -2 | -6 | i | -8 | 5
30 | Cc1cc(N(C)C)ccc1[N+](=O)[O-] | -24 | 3 | 3 | 0 | -30 | i | nt | 4
31 | CC(=O)c1ccc(-c2cccs2)s1 | -30 | -4 | 6 | 1 | 2 | i | -13 | 9
32 | COc1ccc(-c2cc(NC=O)c3ncc(-c4cccc(C(C)=O)c4)n3c2)cc1 | -39 | nt | -3 | -6 | nt | nt | -18 | nt
33 | O=C(Oc1ccccc1)N1CCN(c2ccc(F)cc2)CC1 | nt | 1 | 0 | 4 | 5 | i | -6 | 0
34 | CCOC(=O)N1CCN(C(=O)c2c(-c3c(Cl)cccc3Cl)noc2C)CC1 | -9 | -10 | -1 | -4 | -6 | nt | 1 | 0
35 | CC(CCC(=O)O)C1CCC2C3CCC4C[C@H](O)CCC4(C)C3CC(=O)C12C (stereo partly specified) | 20 | -8 | -4 | -1 | 3 | i | 13 | -13
36 | CCCOC(=O)c1ccc(NC(=O)C2CCCO2)cc1 (stereo unspecified) | -57 | -3 | 3 | 2 | -14 | i | -17 | -2
37 | O=C(Nc1cccc(Cl)c1Cl)c1cc(S(=O)(=O)NCCc2ccccc2)ccc1F | 4 | -3 | 1 | 1 | 3 | i | nt | 5
38 | CCOC(=O)c1ccc(-n2[nH]c(-c3ccccc3)cc2=O)cc1 | 58* | -6 | -19 | -10 | 79* | i | 3 | 9
39 | COc1cc(C(=O)Nc2cc(S(=O)(=O)N3CCOCC3)ccc2N2CCN(C)CC2)cc(OC)c1OC | -3 | nt | 4 | 1 | nt | nt | -4 | nt
40 | O=C(O)c1sccc1Oc1ccc(NS(=O)(=O)c2ccccc2)cc1 | 8 | 1 | 2 | -3 | -10 | i | -13 | 7
41 | Cc1ccccc1-c1nnc(SCCOc2ccc3c(C)cc(=O)oc3c2)o1 | nt | -6 | 0 | 0 | 1 | i | -9 | -1
42 | Cc1cc(C)nc(-n2nc(C)cc2Nc2ccccc2)n1 | nt | 7 | -14 | 0 | 16 | i | nt | 4
43 | O=C(COC(=O)Cn1cnc2ccccc21)Nc1cccc(S(=O)(=O)N2CCOCC2)c1 | 3 | 0 | 3 | -1 | 1 | i | nt | -4
44 | CC(=O)N(C)c1ccc(NC(=O)C(F)(F)F)cc1 | nt | 2 | 12 | 5 | -11 | i | -19 | 0
45 | Clc1ccc(COc2ccccn2)cc1Cl | nt | 5 | 0 | 2 | -1 | i | -3 | -4
46 | Cc1ccc(F)cc1CNC(=O)C1CCC(=O)N(C2CC2)C1 (stereo unspecified) | -6 | 6 | -3 | 6 | -7 | i | -5 | -1
47 | CCC(CC)C(=O)Nc1nnc(S(=O)(=O)N2CCCC2)s1 | -15 | -6 | -1 | -1 | -12 | i | -13 | -2
48 | COC(=O)N1CCCCC1c1cc(C(=O)NCc2ccc(Cl)c(Cl)c2)no1 (stereo unspecified) | 3 | nt | 2 | 3 | nt | nt | -8 | nt
49 | CN(C)c1ccc([N+](=O)[O-])cc1C(=O)O | nt | -8 | 4 | 5 | -8 | i | -3 | -20
50 | O=C(c1cc(-c2cccc(O)c2)on1)N1CCCC1 | -39 | -10 | 3 | -4 | 2 | i | -47 | 5
51 | COc1ccc2c(CCNC(=O)c3ccco3)c[nH]c2c1 | nt | 0 | 0 | -6 | 2 | i | -15 | 2
52 | Cc1ccc(NCc2nnc(SCCN3CCCCC3)n2CC2CCCO2)cc1Cl (stereo unspecified) | 15 | -1 | -3 | -1 | 55 | i | -1 | -11
53 | CN1OC[C@@H]2CN(C(=O)CCc3ccccc3)[C@H](c3cccc(-c4ccccc4)c3)C[C@@H]21 | -11 | nt | -4 | -2 | nt | nt | 6 | nt
54 | Cn1c(=O)c(=O)n(C)c2cc(S(=O)(=O)CCC(=O)Nc3cccc(C(F)(F)F)c3)ccc21 | -6 | 1 | 1 | 3 | -10 | i | -21 | -1
55 | Cn1c(/C=C/c2ccc(Cl)cc2Cl)c([N+](=O)[O-])c(=O)n(C)c1=O | -93 | 17 | -30 | -25 | 28 | i | -4 | 13
56 | Cc1ccc(C(=O)N/N=C/c2c[nH]c3ccccc23)o1 | -2 | 9 | 2 | 6 | -1 | i | -7 | 4
57 | Cc1ccccc1S(=O)(=O)Nc1nc2ccccc2nc1N1CCOCC1 | nt | -2 | 3 | 7 | -3 | i | 16 | -6
58 | C=C(C)C1CC=C(C)/C(=N/NC(=O)CNc2ccc(OCC)cc2)C1 (stereo unspecified) | nt | -5 | 4 | -4 | 0 | i | -1 | -2
59 | O=C(Nc1cccnc1)c1ccc2c(c1)OCO2 | 5 | -3 | 3 | 1 | -14 | i | -11 | 4
60 | CCC1(c2ccc(F)cc2)NC(=O)N(CC(=O)N2CCN(C(=O)c3ccco3)CC2)C1=O (stereo unspecified) | -38 | nt | -2 | -1 | -2 | nt | 8 | nt

(list continues)
item | Molecule | Env fusion inh | eIF4H inh | MT1-MMP act inh RFP | MT1-MMP act inh | CSC inhib | Rce1 inh | Yeast UUG start | PABP FP inh
61 | O=C(OCc1nc2scc(-c3ccccc3)c2c(=O)[nH]1)c1cc([N+](=O)[O-])ccc1Cl | -15 | -1 | 2 | 0 | -8 | i | nt | -5
62 | O=C(NC(C(=O)N/N=C/c1cccc2ccccc12)c1n[nH]c(=O)c2ccccc12)c1ccccc1 (stereo unspecified) | nt | -1 | -8 | 3 | 7 | i | -6 | 10
63 | COc1ccccc1N1CCN(C(=O)Nc2ccc([N+](=O)[O-])cc2)CC1 | nt | -14 | -5 | -2 | -9 | i | nt | -1
64 | COc1cccc(N2C(C(C)=O)=NN(c3ccccc3)C2c2ccc(N3CCOCC3)cc2)c1 (stereo unspecified) | nt | 4 | -2 | -5 | 7 | i | -20 | 3
65 | Cc1cc(C)c2nc(NNC(=O)c3ccc(S(=O)(=O)N4CCc5ccccc5C4)cc3)sc2c1 | -122 | 10 | -12 | 8 | 104* | i | -13 | -3
66 | CCOC(=O)c1cnc(SC)nc1N1CCCC1 | 9 | 5 | -1 | -1 | -26 | i | nt | -5
67 | CC1(C(=O)Nc2ccccc2)Cc2c(-c3cccc(C(N)=O)c3)ccnc2O1 (stereo unspecified) | 5 | nt | 0 | 5 | nt | nt | 4 | nt
68 | CC(C(=O)Nc1ccc2c(c1)OCCO2)N1CCN(C(=O)c2ccco2)CC1 (stereo unspecified) | nt | 2 | 1 | 0 | -4 | i | nt | 10
69 | Cc1cccc(CCNC(=O)C2CCCN(c3cnccn3)C2)c1 (stereo unspecified) | -5 | -10 | -2 | -5 | nt | i | -16 | -5
70 | COc1cc(/C=N/NC(=O)c2ccncc2)ccc1Oc1ccc([N+](=O)[O-])cn1 | -4 | -13 | 0 | 0 | -12 | i | 2 | 36
71 | CN(C)c1ccc(-c2nnc(-c3cccs3)o2)cc1 | -126 | 6 | -1 | 2 | nt | i | nt | -10
72 | Cc1cccc(CCNC(=O)CCS(=O)(=O)c2cc3c(cc2Cl)NC(=O)CO3)c1 | 1 | -5 | nt | nt | -1 | i | -10 | 13

An excerpt from above in order of the Yeast UUG start value, largest number first.
cpd | SMILES | Yeast UUG start
70 | COc1cc(/C=N/NC(=O)c2ccncc2)ccc1Oc1ccc([N+](=O)[O-])cn1 | 2
62 | O=C(NC(C(=O)N/N=C/c1cccc2ccccc12)c1n[nH]c(=O)c2ccccc12)c1ccccc1 (stereo unspecified) | -6
69 | Cc1cccc(CCNC(=O)C2CCCN(c3cnccn3)C2)c1 (stereo unspecified) | -16
